# Screening data as filed in PubChem BioAssay.
# D2 agonist: agonists of human D2 dopamine receptor (beta-arrestin); P14416; DiscoveRx PathHunter D2 beta-arrestin, luminescence, 90 min; 100% = 57 uM dopamine signal; activation, % (concentration not given with the values); 360,000 tested, 0.084% active; AID 624465; in the data active = activation above about 40%; inconclusive = about 15% to 40%; inactive = below about 15%; note: compound concentration not given in the record; the text of the record calls up to 30% inactive
# Target sequence (P14416 whole entry, looked up): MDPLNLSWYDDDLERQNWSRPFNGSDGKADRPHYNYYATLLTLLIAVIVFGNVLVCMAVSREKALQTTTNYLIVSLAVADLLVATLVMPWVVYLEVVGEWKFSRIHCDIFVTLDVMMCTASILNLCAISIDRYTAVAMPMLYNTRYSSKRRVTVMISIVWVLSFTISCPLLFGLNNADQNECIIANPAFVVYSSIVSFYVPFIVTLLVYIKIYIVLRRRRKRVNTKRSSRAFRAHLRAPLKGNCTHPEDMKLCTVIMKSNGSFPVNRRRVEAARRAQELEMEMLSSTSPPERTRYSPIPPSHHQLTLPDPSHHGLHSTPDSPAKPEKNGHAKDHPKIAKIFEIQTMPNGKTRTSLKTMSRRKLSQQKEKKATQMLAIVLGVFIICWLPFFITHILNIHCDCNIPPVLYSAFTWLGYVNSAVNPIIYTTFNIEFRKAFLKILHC
#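 DiscoveRx PathHunter D2 beta-arrestin cells (2,100/well) attached overnight, then compound-stimulated 90 min at 37 C in HBSS/10 mM HEPES/0.1% Tween-20 buffer; beta-galactosidase complementation read by luminescence after 1 h at ambient temperature. Dopamine 57 uM final (EC100) as control.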
# TRPML1 agonist: human mucolipin-1 channel agonism; activation, % (no concentration beside the values); TRPML1-expressing cells, Ca2+ dye fluorescence, FDSS; host cell line not named in the record; reference of the full effect not given here; 410,000 tested, 0.12% active; Q9GZU1; in the data active = activation above about 50%; inconclusive = about 30% to 50%; inactive = below about 30%; note: 0% is about no effect; the text of the record puts the active cut at 80%
# Target sequence (Q9GZU1 whole entry, looked up): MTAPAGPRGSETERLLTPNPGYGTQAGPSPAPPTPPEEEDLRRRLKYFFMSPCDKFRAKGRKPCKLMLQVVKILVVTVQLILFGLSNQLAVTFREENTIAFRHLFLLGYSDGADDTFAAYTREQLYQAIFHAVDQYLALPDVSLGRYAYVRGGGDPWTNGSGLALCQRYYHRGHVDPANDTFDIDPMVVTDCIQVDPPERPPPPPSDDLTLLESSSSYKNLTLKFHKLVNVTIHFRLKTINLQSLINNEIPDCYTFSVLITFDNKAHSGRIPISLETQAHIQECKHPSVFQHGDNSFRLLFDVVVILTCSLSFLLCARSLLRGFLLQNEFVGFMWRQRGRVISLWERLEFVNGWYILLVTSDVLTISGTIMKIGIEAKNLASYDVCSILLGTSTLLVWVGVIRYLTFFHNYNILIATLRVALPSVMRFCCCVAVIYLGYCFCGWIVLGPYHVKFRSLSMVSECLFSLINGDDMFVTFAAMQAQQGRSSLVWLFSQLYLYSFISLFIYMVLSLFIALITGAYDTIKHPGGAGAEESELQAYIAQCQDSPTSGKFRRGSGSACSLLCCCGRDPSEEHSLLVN
#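 Tetracycline-induced TRPML1-DL cells are seeded and incubated overnight before loading with a no-wash Ca2+ dye and quencher. Agonist activity is taken from the 110 s fluorescence read following compound pin-transfer on an FDSS, before EC80 54-4 challenge.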
# PINK1 expr mod: changes PINK1 expression; PINK1 immunofluorescence, high-content cytometry, 24 h; Potency, µM (series often up to 76.6 µM), for inactives: at the highest dose activation (PINK1 increase), hits mostly activators; 410,000 tested, 0.2% active; AID 624263; active = well fitted activation curve with a large enough effect; inconclusive = small, poorly fitted or top-dose-only effect; inactive = flat fitted curve, though single readings scatter; cell line not stated here;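 note: potency is the fitted concentration of half-maximal effect; % of control where 0% means no effect; nearly all actives have a fitted effect of over 65% in size; a mitochondrial uncoupler was the plate control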
#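 Fluorescence from anti-PINK1 antibody, together with nuclear and cell stains, was scanned on a laser-scanning cytometer. Before staining, stable-line cells were incubated 24 hours with compounds at 5 concentrations; primary antibody 12 h at 10 degrees C.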
# CtBP-E1A blk: CtBP/E1A binding inhibition. AlphaScreen GST-E1A/His-CtBP binding, 1536-well; active compounds read low; control for the full effect not named in the record. activity change, % (concentration not given with the values). 340,000 tested, 0.49% active; in the data active means activity change below about -65%; inconclusive means about -30% to -65%; inactive means above about -30%; note: % is set by controls: 0 for no effect and ±100 for the full control effect
#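 GST-E1A and His-tagged CtBP (125 nM each as 5X stock) were preincubated with pin-transferred compound for 2 h at 37 °C in the dark, then glutathione donor and nickel acceptor beads were added for 1 h before AlphaScreen reading.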
# D2 PAM: potentiates the human D2 dopamine receptor allosterically; DiscoveRx D2 beta-arrestin cells, luminescence, 90 min; 100% = 57 uM dopamine signal; potentiation, % (no concentration beside the values); AID 624464; P14416; 360,000 tested, 0.23% active; active = potentiation of 50% or more; inconclusive = 30% to 50%; inactive = 30% or less;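 note: compound concentration not given in the record; tested on top of an EC20 dose of dopamine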
#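 PathHunter D2 cells, attached overnight at 37 deg C, received compound in DMSO plus dopamine at EC20 (50 nM final) for 90 min at 37 deg C. Beta-arrestin recruitment was read as luminescence after 1 h with detection reagent at ambient temperature.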
# Six1-Eya2 blk: blocks human Six1 binding to Eya2 | Q15475+O00167 | 360,000 tested, 0.56% active | AID 651725 | activity change, % (test concentration not listed) | AlphaScreen GST-Six1/His-Eya2 binding, biochemical; active compounds read low; control for the full effect not named in the record; in the data active = activity change below about -65%; inconclusive = about -30% to -65%; inactive = above about -30%; note: % is set by controls: 0 for no effect and ±100 for the full control effect
#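 Six1/Eya2 binding was read as AlphaScreen signal after compounds were pinned into GST-Six1 plus His-tagged Eya2 (5X stock 250/500 nM) in pH 8.0 Tris/NaCl/TCEP buffer, beads added, then incubated 1 h, 37 C, dark.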
# Starred values were filed as active, the others as inactive; ? = inconclusive; · = no result given; & = joins results of further samples; [ ] = remark or other dose. The order is random, and some 1.3% of all compounds hit somewhere here.
# Start of the listing, in advance, 4 compounds:
Compound	D2 agonist	TRPML1 agonist	PINK1 expr mod	CtBP-E1A blk	D2 PAM	Six1-Eya2 blk
CCN(CC(=O)NCc1ccc(Cl)cc1)C(=O)/C=C/c1cccs1	-3.3	-1.5	2.8%	-16	-11	12
CC(=O)c1c(C)[nH]c(C(=O)NCc2ccco2)c1C	-1.7	0.2	0.3%	1	-3	-1
Cc1ccc(C)c(NC(=O)CSc2nnc(-c3ccncc3)o2)c1	0.5	0.7	0.5%	-2	-8	4
O=C(Cn1nc(-c2ccc(Cl)cc2)c2ccccc2c1=O)NCC1CCCO1 (stereo not given)	-3.1	1.5	-2.9%	1	-11	-3

# Results, from the first entry:
Compound	D2 agonist	TRPML1 agonist	PINK1 expr mod	CtBP-E1A blk	D2 PAM	Six1-Eya2 blk
CCN(CC(=O)NCc1ccc(Cl)cc1)C(=O)/C=C/c1cccs1	-3.3	-1.5	2.8%	-16	-11	12
CC(=O)c1c(C)[nH]c(C(=O)NCc2ccco2)c1C	-1.7	0.2	0.3%	1	-3	-1
Cc1ccc(C)c(NC(=O)CSc2nnc(-c3ccncc3)o2)c1	0.5	0.7	0.5%	-2	-8	4
O=C(Cn1nc(-c2ccc(Cl)cc2)c2ccccc2c1=O)NCC1CCCO1 (stereo not given)	-3.1	1.5	-2.9%	1	-11	-3
CC(C)C1CC(c2ccccc2)(C(CN)CO)CCO1 (stereo not given)	-3.1	-0.1	-0.3%	4	-5	9
CCCCOc1c(Br)cc(/C=N/O)cc1OCC	3.1	1.8	-1.7%	6	2	-17
COC(=O)c1cc(Br)c(=O)n(-c2nccs2)c1	-2.3	0.0	0.4%	-2	-4	-1
CC(=O)C1CCC2C3CCC4=CC(=O)CCC4(C)C3(Br)C(=O)CC12C (stereo not given)	11	-0.1	2.3%	2	61*	0
CCOc1ccc(OCCOc2cccc(C(F)(F)F)c2)cc1	-2.6	0.3	4.5%	16	5	26
CC1(C)C2CCC1(CS(=O)(=O)NC1CCCC1)C(=O)C2 (stereo not given)	-2.1	-0.4	1.1%	-7	-9	4
CC(C)c1ccc(CCNC(=O)CCNC(=O)c2ccc(Br)cc2)cc1	-0.9	1.3	?	8	-6	7
CCOC(=O)C1CCN(C(=S)Nc2ccccc2)CC1	-1.3	0.7	1.3%	-20	-2	3
COc1cccc2cc(C(C)N(CCCN3CCOCC3)C(=O)Nc3ccccc3)oc12 (stereo not given)	-0.8	-0.4	0.7%	1	-24	5
O=[N+]([O-])c1ccccc1OCCN1CCCC1	-5.4	-0.6	1.7%	12	-5	-1
CCCNc1nc2c(c(=O)[nH]c(=O)n2C)n1CCc1ccccc1	1.3	-0.7	1.1%	-2	-2	-5
CCCCCc1nnc(NC(=O)NS(=O)(=O)c2ccc(C)cc2)s1	0.0	0.0	-0.4%	2	-3	7
NS(=O)(=O)c1ccc(CCNC(=S)NC2CCCCC2)cc1	0.4	0.3	0.2%	0	-4	7
CC(C)CN1C(=O)c2ccc(NC(=O)Cc3ccccc3)cc2C1=O	-2.5	0.6	2.6%	·	-33	4
O=C(NN=C1C2CC3CC(C2)CC1C3)c1cccc(S(=O)(=O)N2CCOCC2)c1	-0.2	0.5	-0.4%	-6	-3	-5
COc1ccc(OC)c(/C=C/c2ccnc3ccccc23)c1	0.8	2.9&-0.8	-7.2%	4	3	5
CCOC(=O)NC1(NCC(C)C)Oc2ccccc2O1	5.1	-0.4	6.3%[38.3 µM]	-3	18	10
CC(C)c1ccc(NC(=O)C2CC(=O)N=C(N)S2)cc1 (stereo not given)	?	-0.4	0.0%	1	109*	2
Cc1cc(C)c(S(=O)(=O)NCC(=O)NCc2cc(=O)n(C)c(=O)n2C)c(C)c1	-2.0	-0.5	0.4%	-16	-8	5
Cc1cc(OCC(=O)N2CCC[C@@H]2C(=O)O)c2c(C)c(C)c(=O)oc2c1	-3.5	·	0.4%	-13	-14	-3
COc1ccc(-n2c(SC3CCOC3=O)nc3ccccc32)cc1 (stereo not given)	-2.9	1.7	-0.7%	-19	-15	-7
O=C(COCC(=O)N1CCOCC1)N1CCOCC1	-1.3	-0.5	-1.7%	-2	5	8
Cc1ccc(-c2nnn(CC(=O)NCC3COCCO3)n2)o1 (stereo not given)	-2.0	4.5	-1.7%	2	2	-2
O=C(c1ccc(S(=O)(=O)Cc2ccccc2Cl)c([N+](=O)[O-])c1)N1CCOCC1	3.6	-0.9	0.4%	2	16	1
Cc1cc(C)c2[nH]c(C(=O)Nc3ccc(F)cc3Br)cc2c1	-1.8	-0.7	10%	-1	-8	2
O=C(Nc1cc2c(cc1C(=O)O)OCCCO2)c1ccc(C(F)(F)F)cc1	-1.0	-0.4	-0.1%	2	-1	1
COc1ccc(N)cc1NC(=O)CN1CCOCC1	-4.1	-0.2	0.0%	8	-2	0
CC(=O)c1c(C)[nH]c(C(=O)NNC(=O)COc2cc(C)ccc2C(C)C)c1C	4.2	1.6	-0.5%	-6	-1	-7
O=C(Nc1cccnc1)/C(N=Nc1cccnc1)=C(\O)c1ccccc1	-3.2	0.3	-0.7%	-5	-5	-3
CC(NC(=O)c1cc(=O)[nH]c2ccccc12)c1ccccc1 (stereo not given)	-1.1	0.3	0.6%	0	-6	0
O=C(COc1ccc([N+](=O)[O-])cc1)Nc1cc(S(=O)(=O)N2CCCCC2)ccc1N1CCCCC1	-5.3	0.5	?	6	-12	-8
Cc1cc(NC(=O)CCC(=O)N(c2ccc(F)cc2)C(C(=O)NC2CCCC2)c2ccc(C)o2)no1 (stereo not given)	1.0	1.4	0.1%	·	-5	-1
Cc1c(CCOC(=O)c2ccccc2)sc[n+]1CC(=O)c1ccc(Br)cc1	-1.2	-0.4	4.4%	-12	-18	-1
COc1ccc2c(c1)Cc1sc(NC(C)=O)nc1-2	-2.5	-0.3	-12%[38.3 µM]	-6	18	3
O=C(c1ccccc1-c1ncc[nH]1)N1CCc2c([nH]c3ccccc23)C1c1ccccn1 (stereo not given)	-4.3	0.8	4.4%	?	-1	-10
O=[N+]([O-])c1ccc(OCc2cnc(Cl)s2)cc1	3.2	2.4	-2.5%	·	8	0
CCS(=O)(=O)c1ccc(O)c(NC(=O)c2ccc(S(=O)(=O)N3CCCCCC3)cc2)c1	-4.7	0.0	4.0%	1	-9	1
COc1ccc(C2C(C#N)=C(N)OC3=C2C(=O)CC(C)(C)C3)cc1Cn1cc([N+](=O)[O-])cn1 (stereo not given)	-5.4	2.5	0.0%	1	-6	1
Cc1cc(C)cc(-n2cc[nH]c2=S)c1	-1.4	1.1	-2.9%	-12	-20	-3
O=[N+]([O-])c1ccc(N2CCN(S(=O)(=O)c3ccccc3)CC2)c2cccnc12	-4.5	-0.2	2.3%	-3	-29	-14
COc1cccc2c1-c1c(C(=O)O)cccc1C2=O	3.0	·	-0.4%	·	?	-1
Cc1ccc(S(=O)(=O)NCc2ccccc2)cc1C(=O)NCc1ccncc1	-0.3	-0.7	2.4%	2	-4	-3
O=C(Nc1ccc(CN2CCCCC2)cc1)c1ccc(Br)o1	-2.1	0.4	4.3%	0	-14	6
Cc1cc(C)c(S(=O)(=O)N(CC(=O)N2CCOCC2)C2CCCCC2)c(C)c1	-3.9	0.3	-4.1%	-11	2	5
COc1cccc(OC)c1C(=O)NCCSC1CCCCC1	0.9	6.1	-2.2%	3	2	3
CCOc1ccc(-c2c(C(=O)N/N=C(\C)c3cccnc3)nnn2-c2nonc2N)cc1	0.2	-0.2	3.6%	-7	-2	6
Cc1ccc(NC(=O)C2CCC(CNc3c(N4CCC(C)CC4)c(=O)c3=O)CC2)cc1F (stereo not given)	4.2	0.8	3.2%	-1	-1	5
COc1cccc(-c2nc(-c3ccccc3)c(-c3ccccc3)[nH]2)c1OCC(=O)O	4.8	·	-0.6%	·	65*	-4
O=C(NCc1ccccc1)c1ccccc1CO	-1.2	0.8	1.4%	0	-9	12
Cc1cccn2c(=O)c3cc(C#N)c(=O)n(CCCN4CCOCC4)c3nc12	-2.3	-0.4	-2.1%	-9	-27	-5
COc1ccnc2c1c(=O)n(Cc1cccc(F)c1)c(=O)n2C	-3.6	0.5	1.5%	·	-10	-6
COc1ccc(C(=O)Nc2cc(C)on2)cc1S(=O)(=O)N1CC(c2ccccc2)CC1=O (stereo not given)	-5.7	0.7	1.9%	-7	-3	5
Cc1cccc(NC(=O)N2CCN(Cc3ccccc3)CC2)c1	-1.3	-0.4	-4.2%[38.3 µM]	3	-20	-4
C=C(C)COC(=O)c1ccccc1C(=O)OCC1(C)CO1 (stereo not given)	-2.5	0.0	0.8%	5	-3	6
COc1ccccc1N1CCN(C(=O)NC23CC4CC(CC(C4)C2)C3)CC1	-5.4	0.0	1.1%	·	-12	1
CC(C)NC(=O)N(C)C[C@H]1Oc2ccc(NC(=O)C3CCCCC3)cc2C(=O)N([C@H](C)CO)C[C@@H]1C	-3.2	0.1	3.0%	7	-10	6

# The list goes on:
Compound	D2 agonist	TRPML1 agonist	PINK1 expr mod	CtBP-E1A blk	D2 PAM	Six1-Eya2 blk
CCOC(=O)N1CCC(NC(=O)C2CCN(S(=O)(=O)c3ccc4c(c3)oc(=O)n4C)CC2)CC1	-0.7	-0.3	0.3%	4	-1	7
NS(=O)(=O)c1ccc(NC(=O)/C=C/c2cccs2)cc1	3.1	0.5	8.1%	-7	-2	-5
CC(=O)Nc1cccc(-c2ccnc3c2CC(C)(C(=O)NC(C)C)O3)c1 (stereo not given)	-2.2	-0.5	6.3%	1	-5	7
O=C(CSc1ccc(Br)cc1)Nc1ccc(N2CCOCC2)cc1	2.2	-0.4	6.0%	-3	23	3
O=C(NC1CCCC1)C(c1ccc(Cl)cc1)N(C(=O)c1csnn1)C1CC1 (stereo not given)	-2.4	-0.1	-2.1%	-4	-6	-2
CCOC(=O)c1ccccc1OC(=O)Oc1ccccc1C(=O)OCC	-3.6	1.0	-0.5%	13	-6	4
CN1CCN(C(=O)c2ccc(-c3cccs3)s2)CC1	1.3	-0.4	-0.1%	6	-10	5
CCOc1ncccc1C(=O)N1CCN(Cc2ccc3c(c2)OCO3)CC1	60*	-1.1	1.5%	-3	-12	-11
O=C(Cc1cccs1)Nc1nnc(SCc2ccc(F)cc2)s1	-0.6	-0.1	13%	-6	-8	8
CCCCOc1ccc(C(=O)CCN2CCCCC2)cc1	-4.2	4.2	2.7%	0	-11	1
O=C(Cn1cc(C(F)(F)F)cc(Cl)c1=O)Nc1cc(Cl)cc(Cl)c1	-2.5	0.2	1.5%	·	-4	13
COc1cc(CNCCc2c[nH]c3ccccc23)ccc1OCc1ccccc1F	-6.9	1.1	3.1%[38.3 µM]	11	-24	?
Nc1cc(N2CCCCC2)c([N+](=O)[O-])cc1Cl	-3.7	-0.2	-1.9%	-9	-22	-14
CCOC(=O)c1[nH]c(CSc2nnc(-c3ccc(OC)cc3)o2)c(C(=O)OCC)c1C	-2.6	1.6	10%	-7	-1	-10
